# Beta2AR agonist – human beta-2 adrenergic receptor agonism by FAP; Am2.2-beta2AR cells, FAP receptor internalization, flow cytometry; reference of the scale not given here; response, % (no concentration beside the values); 340,000 compounds, 0.43% hits;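 active = response above a set limit, near 3 SD of response in nonfluorescent compounds, cut at about 42% in these data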;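 also: stock transfer was 100 nL into about 11 µL; a reference agonist was the positive control; negative values mostly stem from fluorescent compounds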
# Target sequence (P07550 whole entry, looked up): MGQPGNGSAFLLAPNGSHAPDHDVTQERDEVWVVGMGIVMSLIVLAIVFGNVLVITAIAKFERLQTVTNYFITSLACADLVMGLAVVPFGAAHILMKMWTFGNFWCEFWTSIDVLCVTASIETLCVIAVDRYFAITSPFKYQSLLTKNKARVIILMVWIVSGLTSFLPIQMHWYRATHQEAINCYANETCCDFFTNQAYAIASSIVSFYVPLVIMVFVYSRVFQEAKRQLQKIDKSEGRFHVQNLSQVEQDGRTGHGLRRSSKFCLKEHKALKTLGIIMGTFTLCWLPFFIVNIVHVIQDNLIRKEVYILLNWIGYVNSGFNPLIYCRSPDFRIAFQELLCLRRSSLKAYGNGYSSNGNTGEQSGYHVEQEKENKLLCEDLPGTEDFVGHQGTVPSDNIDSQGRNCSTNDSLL
# UCH37 inh – inhibitors of human deubiquitinating enzyme UCH37. Q9Y5K5. purified proteasome/UCH37, Ub-AMC cleavage fluorescence. inhibition, % (no concentration beside the values). 330,000 compounds, 0.33% hits. AID 588478;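 active = mean of two replicates above 20%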;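 also: 0% = compound-free wells with enzyme and 100% = wells lacking proteasome; stock transfer was 100 nL into about 20 µL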
# Target sequence (Q9Y5K5 whole entry, looked up): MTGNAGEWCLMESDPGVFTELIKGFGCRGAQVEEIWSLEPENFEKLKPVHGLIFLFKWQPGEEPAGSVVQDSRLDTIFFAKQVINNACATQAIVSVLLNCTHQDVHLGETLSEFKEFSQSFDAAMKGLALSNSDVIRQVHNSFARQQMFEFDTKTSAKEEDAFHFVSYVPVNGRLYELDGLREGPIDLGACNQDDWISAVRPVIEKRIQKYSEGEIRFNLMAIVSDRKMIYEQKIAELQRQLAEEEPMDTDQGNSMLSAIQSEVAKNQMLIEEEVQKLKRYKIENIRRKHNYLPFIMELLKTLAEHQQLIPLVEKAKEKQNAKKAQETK
#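 System: Proteasome-associated human UCH37 deubiquitinase; Input: 0.15 nM proteasome in added enzyme buffer; Also added: Ub-AMC substrate from 1 µM stock; Incubation: 30 min compound-proteasome preincubation then 25 min substrate reaction, room temperature; Detection: fluorescence, ex 355 nm, em 460 nm; Read-out: % inhibition of Ub-AMC cleavage fluorescence; Benchmarks: no-proteasome and no-compound wells.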
# T cruzi inh – T. cruzi replication inhibition; T. cruzi beta-gal in NIH3T3, luminescence, 90 h; inhibition, % (concentration not given with the values); AID 1885; 300,000 compounds, 1.4% hits;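 active = mean inhibition across valid replicates above about 55%, limit read from the data; inconclusive = mean below that limit but half or more replicates reach it; inactive = mean below it, under half of replicates reach it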;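 also: signal also drops with host cell toxicity which is not excluded here; 0% = plate median of DMSO wells and 100% = zero luminescence signal; higher percent means less beta-gal luminescence so fewer parasites; stock transfer was 50 nL into about 50 µL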
# Calb FLC – affects C. albicans growth with fluconazole. 300,000 compounds, 0.57% hits. growth inhibition, % (no concentration beside the values). C. albicans CaCi-2 (fluconazole-resistant clinical isolate) + fluconazole, Alamar Blue growth, 48 h;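 active = most replicates above 75%; inconclusive = exactly half above 75%; inactive = most below 75%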;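 also: all wells also contain fluconazole at 8 µg/ml as a sub-toxic cotreatment; 0% = median of DMSO wells and 100% = median of geldanamycin control wells; wells of about 8 µL received 7.5 nL stock; the first replicate is given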
# LANA-H2A inh – blocks KSHV LANA binding to histone H2A/H2B; cell-free LANA-H2A/H2B peptide, fluorescence polarization; inhibition, % (test concentration not listed); 320,000 compounds, 0.6% hits; AID 2629; in the data active = inhibition mostly above about 10%, no sharp cut-off; inactive = mostly below about 6.7%;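 also: stock transfer was 7.5 nL into about 10 µL; 0% = median of vehicle wells and 100% = median of positive control wells; one replicate is shown; the record names a cut of 25% in any replicate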
# RanGTP-Impb inh – inhibitors of RanGTP-importin-beta interaction, primary screen, biochemical, FRET, CFP-Ran, YFP-importin-beta, homogeneous; cell-free CFP-Ran/YFP-importin-beta FRET ratio; inhibition, % (test concentration not listed); 300,000 compounds, 1.1% hits;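 active = most replicates above 15%; inconclusive = exactly half above 15%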;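 also: 0% = DMSO wells and 100% = Ran loaded with GDP instead of GTP; wells of about 40 µL received 100 nL stock; the first replicate is given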
# Bfl-1 A1 inh – inhibitors of the anti-apoptotic protein A1, read as caspase activation; caspase activation, % (concentration not given with the values); AID 2462; 330,000 compounds, 0.066% hits; MEF A1-2A-BIM cells, Caspase-Glo 3/7 luminescence, 3 h; percent of clofoctol response, vehicle zero;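 active = over half of replicate activation scores above 10%, or exactly half above 10 with the replicate mean above 10; inconclusive = replicate mean below 10 yet half the replicates above 10; inactive = over half of replicates below 10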;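 also: wells of about 30 µL received 50 nL stock; many hits fall short of the cut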
# Beta cell apopt – blocks beta cell apoptosis; INS-1E cytokine-induced death, ATP luminescence, 48 h; percent of positive-control rescue, neutral wells zero; protection from apoptosis, % (no concentration beside the values); 300,000 compounds, 0.8% hits; AID 435005;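 active = all replicates at 75% or more, or half of them and the mean; inconclusive = half reach 75% but not the mean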;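 also: 0% = cytokine-treated negative control wells and 100% = positive control rescue; higher means more ATP so stronger rescue from cytokine killing; wells of about 40 µL received 100 nL stock; the first replicate is given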
# * = called active by the depositor; i = inactive; ? = inconclusive; . = not tested or not shown.
SMILES,Beta2AR agonist,UCH37 inh,T cruzi inh,Calb FLC,LANA-H2A inh,RanGTP-Impb inh,Bfl-1 A1 inh,Beta cell apopt
CCc1ccc(C2C(C(=O)O)c3ccccc3C(=O)N2C)cc1 (stereo not given),-6,-1.7,-15,-3,1.3,-1.8,-0.3,3
CC(=O)c1ccc(NC(=S)NNC(=O)c2ccncc2)cc1,-6,15,-2,-2,-2.3,?,0.1,8
Cc1ccc(C(=O)N2CCN(c3ccc(NC(=S)NC(=O)Cc4ccccc4)cc3)CC2)cc1,0,4.7,38,62,-2.2,-1.3,-0.2,18
Cc1cccc(C(=O)Oc2ccc(/C=N/NC(=O)Cc3ccc([N+](=O)[O-])cc3)cc2)c1,5,.,-20,-2,-5.6,2.4,0.1,1
Cc1ccc(N(C(=O)c2csnn2)C(C(=O)NC2CCCCC2)c2ccco2)cc1 (stereo not given),7,1.5,-1,12,1.7,3.6,-1.1,-1
COc1ccccc1OCC(=O)N1CCN(C(=O)COc2ccccc2OC)CC1,-3,2.1,14,-1,2.3,-3.1,-0.3,-1
Cc1cccc(C)c1OCC(=O)Nc1ccc2c(c1)OCCO2,-9,5.2,-21,19,-12,3.9,-0.9,-1
Cn1c(SCc2ccccc2)nnc1-c1c[nH]c2ccccc12,0,1.6,7,1,5.1,-0.9,-0.3,1
O=C1CC(N2CCC(O)CC2)C(=O)N1c1ccc(Br)cc1 (stereo not given),2,2.0,-6,-1,4.7,-0.9,0.4,-4
O=C(COC(=O)Cc1ccc(Br)cc1)Nc1c(F)c(F)c(F)c(F)c1F,1,5.4,-6,10,3.3,0.7,0.0,5
O=C(NCC1CCCO1)c1cc2n(n1)C(C(F)(F)F)CC(c1ccc(F)cc1)N2 (stereo not given),5,3.2,-22,-4,-2.6,-3.4,0.2,-2
Oc1ccc(Cl)cc1/C=N/c1nc2ccccc2[nH]1,2,.,-2,9,-0.3,.,1.0,-5
O=C1CC(N2CCN(c3ccccc3)CC2)C(=O)N1c1ccc2c(c1)OCO2 (stereo not given),-4,-0.1,.,15,0.1,-4.3,-0.3,-1
CCC1C(=O)CC(c2ccc([N+](=O)[O-])cc2)NC1c1ccc([N+](=O)[O-])cc1 (stereo not given),4,5.1,9,1,0.6,-0.6,0.0,4
O=C1NC2(CCCCC2)C(=O)N1CCS(=O)(=O)Oc1ccccc1,7,0.5,-7,-5,-4.5,2.1,-1.3,-2
Clc1ccc(CSc2nnnn2-c2ccc3c(c2)OCO3)c(Cl)c1,-4,6.5,11,-30,-6.8,-1.2,0.6,0
COc1ccc(-c2noc(CCCC(=O)NC3CCCC3)n2)cc1,-6,3.7,-14,-8,-0.7,2.0,0.4,40
CCc1ccc(-c2nc(CSCC(=O)NC3CC3)c(C)o2)cc1,1,.,6,3,-4.1,2.4,-1.2,5
CCN(CCCNC(=O)CC(C(=O)N1CCc2ccccc21)n1ccnc1)c1ccccc1 (stereo not given),-1,3.9,29,0,3.0,-5.7,1.5,-7
Cc1noc(C)c1CSCC(=O)N(C)CC(=O)Nc1cccc(F)c1,-10,1.2,2,0,4.5,3.9,0.0,-4

# A different layout for 12 compounds above:
# Second line of a record: Beta2AR agonist	UCH37 inh	T cruzi inh	Calb FLC	LANA-H2A inh	RanGTP-Impb inh	Bfl-1 A1 inh	Beta cell apopt
O=C1CC(N2CCC(O)CC2)C(=O)N1c1ccc(Br)cc1 (stereo not given)
    2	2.0	-6	-1	4.7	-0.9	0.4	-4
O=C(COC(=O)Cc1ccc(Br)cc1)Nc1c(F)c(F)c(F)c(F)c1F
    1	5.4	-6	10	3.3	0.7	0.0	5
O=C(NCC1CCCO1)c1cc2n(n1)C(C(F)(F)F)CC(c1ccc(F)cc1)N2 (stereo not given)
    5	3.2	-22	-4	-2.6	-3.4	0.2	-2
Oc1ccc(Cl)cc1/C=N/c1nc2ccccc2[nH]1
    2	.	-2	9	-0.3	.	1.0	-5
O=C1CC(N2CCN(c3ccccc3)CC2)C(=O)N1c1ccc2c(c1)OCO2 (stereo not given)
    -4	-0.1	.	15	0.1	-4.3	-0.3	-1
CCC1C(=O)CC(c2ccc([N+](=O)[O-])cc2)NC1c1ccc([N+](=O)[O-])cc1 (stereo not given)
    4	5.1	9	1	0.6	-0.6	0.0	4
O=C1NC2(CCCCC2)C(=O)N1CCS(=O)(=O)Oc1ccccc1
    7	0.5	-7	-5	-4.5	2.1	-1.3	-2
Clc1ccc(CSc2nnnn2-c2ccc3c(c2)OCO3)c(Cl)c1
    -4	6.5	11	-30	-6.8	-1.2	0.6	0
COc1ccc(-c2noc(CCCC(=O)NC3CCCC3)n2)cc1
    -6	3.7	-14	-8	-0.7	2.0	0.4	40
CCc1ccc(-c2nc(CSCC(=O)NC3CC3)c(C)o2)cc1
    1	.	6	3	-4.1	2.4	-1.2	5
CCN(CCCNC(=O)CC(C(=O)N1CCc2ccccc21)n1ccnc1)c1ccccc1 (stereo not given)
    -1	3.9	29	0	3.0	-5.7	1.5	-7
Cc1noc(C)c1CSCC(=O)N(C)CC(=O)Nc1cccc(F)c1
    -10	1.2	2	0	4.5	3.9	0.0	-4

# Going on with the list:
SMILES,Beta2AR agonist,UCH37 inh,T cruzi inh,Calb FLC,LANA-H2A inh,RanGTP-Impb inh,Bfl-1 A1 inh,Beta cell apopt
CC(=O)N1CCN(Cc2nc3cc(NC(=O)c4cccs4)ccc3n2C)CC1,-4,6.9,-2,-32,1.1,0.9,-0.5,-3
Cc1ccc(C)c(NC(=S)N(C)C)c1,-2,4.3,-4,-3,-2.7,-0.6,1.8,-9
S=C(NCCC(c1ccccc1)c1ccccc1)Nc1ccc(Cl)cc1,8,5.2,31,4,-2.1,-5.2,1.0,-6
C=CC[C@@H](Cc1ccc(F)cc1)C(=O)OC[C@@H]1CCCN1C(=O)[C@@H](CC=C)CC(=O)N[C@@H](CO)Cc1ccccc1,-4,3.6,.,.,2.0,.,-0.2,-6
COc1ccc(C(=O)N/C(=C\c2cccc3ccccc23)C(=O)N2CCN(C)CC2)cc1,-1,3.0,.,.,-0.9,.,0.3,-9
O=[N+]([O-])c1ccc(NCCCO)c(S(=O)(=O)N2CCOCC2)c1,3,-1.1,-22,2,1.5,6.4,-0.4,1
Cc1ccsc1/C=N/NC(=O)Cc1ccc([N+](=O)[O-])cc1,-5,.,-9,10,-3.1,3.4,-0.1,.
Cc1ccc2nc(NC(=O)CSCC(=O)OCC(=O)c3ccccc3)sc2c1,1,-0.7,-3,-50,i,-2.6,-2.8,-4
O=C(NCc1ccco1)c1ccc(CS(=O)(=O)Cc2ccc(F)cc2)o1,-2,4.1,-13,-1,5.3,?,1.6,-6
O=C(c1cnn2c(C(F)(F)F)cc(-c3ccc4c(c3)OCO4)nc12)N1CCCCC1,-4,-21,14,-5,-0.9,0.2,0.7,-2
CCCCOC(=O)CSc1nc2c(c(=O)[nH]c(=O)n2C)n1C/C=C(\C)Cl,-13,7.6,0,5,12*,-0.9,0.7,-4
c1ccc(C[C@H]2CN=C(Nc3ccccc3)N2CC2CCCCC2)cc1,24,2.8,.,.,-2.6,.,-0.4,1
Cc1nn(Cc2c(Cl)cccc2Cl)c(Cl)c1/C=N/NC(=O)c1cccnc1,4,.,-8,5,-4.0,-3.9,-0.5,-1
COc1ccccc1Oc1ccnc2cc(Cl)ccc12,9,3.0,-6,15,-0.3,-2.4,1.1,1
CCC(Oc1ccc(C)cc1)C(=O)Nc1ccc(S(=O)(=O)Nc2nccs2)cc1 (stereo not given),10,0.3,4,2,-7.1,-5.6,-0.7,-9
CCCC(=O)C1=C(N2CCCC2)CC(C)(C)C(C(=O)OC)C1=O (stereo not given),-2,6.1,3,12,0.9,4.4,0.6,-4
Nc1nnnn1/N=C/c1ccccc1O,10,.,-4,-11,4.8,2.0,-0.6,2
COc1cccc(C2/C(=C(/O)c3ccc(C)cc3)C(=O)C(=O)N2Cc2ccco2)c1 (stereo not given),5,9.5,-3,94*,-0.8,?,0.2,-3
O=C(c1oc(=O)c2ccccc2c1-c1ccccc1)N1CCOCC1,-6,2.1,10,3,-0.1,-0.7,-1.7,-5
O=C(Cc1ccccc1)Nc1ccccc1Sc1ccccc1,10,-0.3,24,4,-2.4,?,-0.1,-3
Cc1cc(C(=O)CN2C(=O)NC3(CCCCC3)C2=O)c(C)n1-c1ccc2c(c1)OCO2,2,0.9,16,-1,5.5,-1.7,0.7,2
O=C(NCCCN1CCCC1=O)Nc1ccc(Cl)cc1,8,-1.3,-19,2,-1.7,-1.0,0.0,2
COc1ccc(S(=O)(=O)N2CC(C(=O)O)Oc3ccc(CC(=O)O)cc32)cc1 (stereo not given),0,0.8,-25,5,2.4,0.9,-0.8,-2
CN(C1=NS(=O)(=O)c2ccccc21)c1ccc(OC(=O)c2ccncc2)cc1,7,5.2,-2,-2,1.1,1.8,0.0,-8
CCCC(C(=O)Nc1nccs1)c1ccccc1 (stereo not given),-1,5.9,-5,-20,.,3.3,0.6,6
COc1cccc(S(=O)(=O)Nc2ccc(C(=O)N3CCN(C(=O)c4ccco4)CC3)cc2)c1,-9,-2.9,2,8,2.3,-0.1,-0.4,-16
COc1ccc(NC(=O)CSc2nnc(NC(=O)c3ccco3)s2)cc1,17,1.7,7,-7,-1.9,6.4,1.2,0
COc1ccc(/C=N\NC(=O)c2ccccc2Br)cc1COc1ccccc1,0,.,-3,4,-1.5,-3.5,0.1,12
COc1ccc(C2(O)CCN(CC(=O)Nc3nccs3)CC2)c(OC)c1,-1,3.7,12,9,-10,3.7,0.6,-1
C=C1CCC[C@]2(C)C[C@H]3OC(=O)C(CNC(C)CC)[C@H]3CC12 (stereo not given in full),-9,16,-27,-5,2.3,1.1,1.6,-28
CC1CCN(S(=O)(=O)c2cccc(C(=O)N3CCN(c4ccc(F)cc4)CC3)c2)CC1,-5,3.7,24,7,1.9,0.4,-0.3,4
CCc1ccc(-c2cc(-c3n[nH]c(=S)n3CC)c3ccccc3n2)cc1,.,.,7,1,2.5,1.1,-2.2,-1
Cc1ccnc(NC(=O)CC(NC(=O)c2ccccc2Cl)c2ccccc2)c1 (stereo not given),-2,3.2,-4,-1,-3.4,1.5,0.5,0
COCCNC(=O)c1onc(CSc2ccccc2C)c1C(=O)O,7,-5.7,-12,-4,-2.5,1.4,1.3,-4
CCCCC(CC)CNC(=O)C(=O)C1C(=O)Nc2ccccc21 (stereo not given),1,4.4,-2,-8,-5.1,-0.7,0.6,2

# Not a hit list. Share with any hit: about 4.3%.
